Mtb betalactam = beta-lactam sensitization of Mtb H37Rv, H37Rv | actives 0.27% (n = 330,000) | AID 434955, 2010 | M. tuberculosis H37Rv growth with meropenem, percent inhibition; hits of this screen are not shown here | inhibition, % at 25 µM;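 active = about 74% or more and at least 40 points above the plate without the antibiotic, then above 30% in a dose series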;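 note: growth measured after seven days incubation then overnight dye step; 0% = bacteria only wells and 100% = bacteria with antibiotic; twin plates without the antibiotic show which effects depend on it; some results filed as inactive read as strong as hits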
The depositor's hits bear a star.

SMILES | Mtb betalactam
CC(C)COC(=O)OCN1C(=O)CN(CCN2CC(=O)N(COC(=O)OCC(C)C)C(=O)C2)CC1=O | 1.5
O=C(O)c1ccc(CNCc2cc(Cl)ccc2O)cc1 | 1.6
C#CCOCCOCCOCCNc1nc(N2CCN(C(=O)[C@H]([C@@H](C)O)n3cc(CCCCN)nn3)CC2)nc(N2CCN(C(=O)[C@H](CCCCN)n3cc(CC(C)O)nn3)CC2)n1 (stereo partly drawn) | 1.4
Cc1ccc(S(=O)(=O)N2CCCCC2)cc1NC(=O)Cn1ncc(Cl)c(Cl)c1=O | 31.6
COc1ccc(CNC(=O)CSc2nnc(C3CC3)n2C2CC2)cc1 | 0.1
COc1ccc(CNC(=O)CN2CCN(S(=O)(=O)c3ccccc3)CC2)cc1 | -1.4
CC(=O)Oc1ccccc1C(=O)Oc1ccccc1C(=O)O | 2.7
COc1ccc2nc(NC(=O)CCNC(=O)c3ccco3)sc2c1 | -5.8
COCCn1c(=O)[nH]c2cc(C(=O)N3CCN(c4cccc(Cl)c4)CC3)ccc2c1=O | 5.0
CC(C)(C)[C@H](N)C(=O)N[C@H]1CCC2C3CC=C4C[C@@H](O)CC[C@]4(C)C3CC[C@@]21C (stereo partly drawn) | -0.9
Cc1cc(NC(=O)Cn2cnc3sccc3c2=O)no1 | -4.0
CC(=O)c1c(C)[nH]c(C(=O)NNC(=O)COc2cc(C)ccc2C(C)C)c1C | -9.2
CCC(=O)c1ccc(OCC(=O)NCc2ccccc2CN2CCCC2)cc1 | -4.9
COc1ccc(CCn2c(C)cc(C(=O)CN3C(=O)C(=O)N(Cc4ccco4)C3=O)c2C)cc1 | 81.7
COc1ccc(NC(=O)c2cc3ccccc3o2)cc1S(=O)(=O)N1CCCCC1 | -6.3
Cc1ccc(C(=O)CN2C(=O)NC3(CCc4ccccc43)C2=O)s1 (stereo not drawn) | -1.4
O=C(COC(=O)c1ccc(O)cc1O)Nc1ccc2ccccc2c1 | -11.3
O=C(COC(=O)C1CC(O)CN1S(=O)(=O)c1ccccc1[N+](=O)[O-])c1ccc[nH]1 (stereo not drawn) | -8.1
CC(=O)c1ccc(NC(=O)CN2c3cccc4cccc(c34)S2(=O)=O)cc1 | -10.2
COc1ccc(S(=O)(=O)N2CCCCCC2)cc1C(=O)NCc1cccs1 | -2.3
O=C(NCc1ccccc1Cl)c1ccc2ccccc2n1 | 1.7
Cc1ccc(C)c(OCc2ccc(C(=O)Nc3ccc([N+](=O)[O-])cn3)o2)c1 | 3.4
COc1cc(/C=C/C(=O)OCC(=O)c2ccccc2)cc(OC)c1OC | 0.5
Oc1cc(Nc2ccccc2)cc2cccnc12 | 98.6
COc1ccc(CN(CC(=O)NCC2CCCO2)C(=O)CCC(=O)Nc2nccs2)cc1 (stereo not drawn) | 4.7
CCOC(=O)c1c(C)[nH]c(C(=O)COC(=O)CNS(=O)(=O)c2ccc(C)cc2)c1C | 0.0
CC(C)c1nc2cc(C(=O)N(C)Cc3ccc(F)cc3)ccc2o1 | -3.1
O=C(c1ccco1)N1CCN(Cc2nnc(-c3cccc(Cl)c3)o2)CC1 | -3.9
O=c1cc(-c2ccc(O)c(O)c2)oc2c1ccc1ccccc12 | -2.5
CCOc1ccc(C(=O)COC(=O)C2COc3ccccc3O2)cc1 (stereo not drawn) | -5.5
CC(=O)Nc1sc2c(c1-c1nc3ccccc3s1)CN(C(C)C)CC2 | 94.0
CC(=O)Nc1ccc(C(=O)OCCc2ccccc2)cc1 | 2.2
CC(C)C(NC(=O)c1c(F)cccc1F)C(=O)N1CCN(S(=O)(=O)/C=C/c2ccccc2)CC1 (stereo not drawn) | -3.2
NC(=O)c1ccsc1NC(=O)COC(=O)Cc1n[nH]c(=O)c2ccccc12 | -3.0
C[C@@H]1COC(=O)[C@@H](CC(=O)OC(C)(C)C)C/C=C\C[C@@H](CC(=O)N[C@H](CO)Cc2ccccc2)C(=O)N1 | 1.9
O=C(CNc1cccc([N+](=O)[O-])c1)NCCCc1ccccc1 | -1.8
Cc1c(C(=O)N2CCN(c3ccc([N+](=O)[O-])cc3)CC2)sc2ncn(CC(=O)N3CCOCC3)c(=O)c12 | -1.6
C[C@H](CO)N1C[C@H](C)[C@@H](CN(C)CC2CCCCC2)Oc2c(NC(=O)CCC(F)(F)F)cccc2C1=O | -2.4
Cc1ccc(CC(=O)OCC(=O)c2ccc[nH]2)cc1C | 5.3
Cc1cccc(N2C(=O)N3[C@H]4c5ccccc5OC[C@@H]4[C@@H](c4ccccc4)[C@@]3(C)C2=O)c1 | 4.6
O=S(=O)(Nc1cccc(Cl)c1)c1cccc(-n2cnnn2)c1 | 1.2
CC(C)CCN1C(N(C)C)=NC[C@@H]1C | 2.0
CS(=O)(=O)N(CC(=O)N1CCOCC1)c1cccc(Cl)c1Cl | -1.2
COc1ccc(NC(=O)C(Cc2cc(C)cc(C)c2)C(C)C(=O)O)cc1 (stereo not drawn) | -9.3
Cc1onc(-c2c(F)cccc2Cl)c1C(=O)OCC(=O)N1C(C)CCCC1C (stereo not drawn) | -1.2
CC(=O)NC(CC(=O)OCC(=O)c1cc(C)ccc1C)c1ccccc1 (stereo not drawn) | 0.2
Cc1ccc(N2CC(C(=O)Nc3ccccc3OC(F)F)CC2=O)cc1 (stereo not drawn) | 3.0
CC(C)CC1Nc2ncnc(N3CCOCC3)c2N(Cc2ccc(Cl)cc2)C1=O (stereo not drawn) | -1.3
CN(C)C(CNC(=O)c1ccc(S(=O)(=O)Nc2ccccc2F)cc1)c1ccco1 (stereo not drawn) | -10.2
CCOc1ccc(N2CC(C(=O)Nc3nnc(Cc4ccccc4)s3)CC2=O)cc1 (stereo not drawn) | 9.8
CN(CC(=O)Nc1ccccc1Cl)C(=O)COC(=O)CSc1ccc(Cl)cc1 | 1.1
COc1ccc(CC(=O)N(C)CC(=O)Nc2ccc(F)cc2)cc1S(=O)(=O)N1CCOCC1 | -8.7
C[C@H](CO)N1C[C@H](C)[C@@H](CN(C)S(=O)(=O)c2ccc(F)cc2)Oc2c(NC(=O)Nc3ccccc3)cccc2C1=O | 5.2
CCC(OC(=O)c1nsc(Cl)c1Cl)C(=O)NCCc1ccccc1 (stereo not drawn) | 4.8
C[C@H]1CN([C@@H](C)CO)C(=O)c2cccc(NC(=O)Nc3ccc(C(F)(F)F)cc3)c2O[C@@H]1CN(C)C(=O)Nc1ccc(F)cc1 | 44.6
COc1ccc(CCNC(=O)c2ccccc2C(=O)NCCc2ccc(OC)cc2)cc1 | -2.7
CC(C)(C)[C@H]1COC(=O)CCCC/C=C\C[C@H](CC(=O)NCCO)C(=O)N1 | 2.6
COc1ccc(S(=O)(=O)N(C)C[C@@H]2Oc3ccc(NS(C)(=O)=O)cc3C(=O)N([C@@H](C)CO)C[C@H]2C)cc1 | -5.0
CN(CCOc1ccc(Cl)c(Cl)c1)Cc1ccccc1 | 8.9
CCc1cc2c(SCc3ccc(C(=O)OC)o3)ncnc2s1 | 7.8

Next section.
SMILES | Mtb betalactam
Cc1ccc2c(c1)NC(=O)[C@@]1(C)[C@@H](c3ccccc3)[C@H]3COc4ccc(Cl)cc4[C@@H]3N1C2=O | 0.2
CCSc1nnc(NC(=O)CN2C(=O)NC3(CCCC3)C2=O)s1 | -0.8
C[C@H]1CN([C@@H](C)CO)C(=O)Cc2cc(NC(=O)C3CC3)ccc2O[C@H]1CN(C)Cc1ccc(C(=O)O)cc1 | -1.8
CC(=O)Nc1ccc(C=NNc2ccc(S(=O)(=O)Nc3ccccc3C(=O)O)cc2[N+](=O)[O-])cc1 | 5.0
CCCc1cc(=O)oc2cc(OC(C)C(=O)NCC3CCC(C(=O)O)CC3)c(Cl)cc12 (stereo not drawn) | -6.1
CCOc1ccccc1C(C(=O)NC1CCCC1)N(C(=O)c1csnn1)C1CC1 (stereo not drawn) | -1.0
CC1CC(C)CN(C(=O)c2ccc(Br)c(S(=O)(=O)N3CCOCC3)c2)C1 (stereo not drawn) | 0.8
C[C@H](CO)N1C[C@H](C)[C@@H](CN(C)S(=O)(=O)c2cccs2)Oc2c(NS(=O)(=O)c3ccc(F)cc3)cccc2C1=O | -4.6
O=C(NC(=O)c1cc([N+](=O)[O-])ccc1Cl)C1=C(N2CCCC2)COC1=O | 11.8
c1ccc(-c2sc3ccccc3c2-c2ccc(OCCN3CCCCC3)cc2)cc1 | 48.3
CCSc1nnc(NC(=O)C2CCN(C(=O)c3ccc(F)cc3)CC2)s1 | -10.1
CC1CC(C)CN(S(=O)(=O)c2ccc(NC(=O)c3ccc(=O)[nH]c3)cc2)C1 (stereo not drawn) | -4.7
COc1ccc(OCC(=O)NNC(=O)C(=O)Nc2ccccc2)cc1 | 52.1
C#CCOCCOCCOCCNc1nc(N2CCN(C(=O)CCCCCCCCCCNC(=O)[C@@H](CCSC)n3cc(CCO)nn3)CC2)nc(N2CCN(C(=O)CCCCCCCCCCNC(=O)[C@H](CCSC)n3cc(CCO)nn3)CC2)n1 | 6.8
CC(C)[C@H](NS(=O)(=O)c1ccccc1F)C(=O)OCC(=O)Nc1cccc(S(N)(=O)=O)c1 | -5.8
O=C(O)c1ccc2c(c1)S(=O)(=O)c1cc(Cl)ccc1C2=O | 47.1
CC(C)COc1ccc(C(=O)Nc2cc(S(=O)(=O)N3CCOCC3)ccc2N2CCCC2)cc1 | -3.8
Cc1ccc2nc(CSc3nc(C)nc4c3oc3ccccc34)[nH]c2c1 | -10.2
Cc1cc(O)c2c(c1)C(=O)C13C(=C2O)C(=O)[C@H]2[C@@H](O)[C@@H]1[C@H]1[C@H](O)[C@@H]3C(=O)C3=C(O)c4c(O)cc(C)cc4C(=O)C312 (stereo partly drawn) | 43.6
CCOc1ccc(NS(=O)(=O)c2cc(C(=O)NCCN3CCOCC3)ccc2C)cc1 | -0.1

Going on with the list.
SMILES | Mtb betalactam
O=C(NCC(c1cccs1)N1CCOCC1)c1cnc(Cl)c(Cl)c1 (stereo not drawn) | 1.8
CC(C)C[C@H]1CN=C(Nc2ccccc2)N1CC1CCC(C(C)(C)C)CC1 (stereo partly drawn) | 100.1
CC(=O)c1cccc(NC(=O)C(C)OC(=O)CCn2c(C)csc2=O)c1 (stereo not drawn) | -7.6
COc1ccc(NC(=O)c2cc(-c3ccncc3)nc3ccccc23)c(OC)c1 | 33.8
O=C(CNC(=O)c1ccccc1)OCC(=O)c1c[nH]c2ccccc12 | -0.1
C[C@@H]1CN([C@H](C)CO)C(=O)c2cc(NS(=O)(=O)c3cccs3)ccc2O[C@H]1CN(C)Cc1ccccc1 | 3.0
COc1ccc(C2(C)NC(=O)N(CC(=O)NC3CCCC3)C2=O)cc1OC (stereo not drawn) | 7.4
Cc1ccc(NC2=CC(=O)C(=O)c3ccccc32)c(C)c1 | 27.1

Quoted at random: 3 entries already listed, in no set order.
SMILES | Mtb betalactam
COc1ccc(CCn2c(C)cc(C(=O)CN3C(=O)C(=O)N(Cc4ccco4)C3=O)c2C)cc1 | 81.7
CC(C)(C)[C@H](N)C(=O)N[C@H]1CCC2C3CC=C4C[C@@H](O)CC[C@]4(C)C3CC[C@@]21C (stereo partly drawn) | -0.9
COc1ccc2nc(NC(=O)CCNC(=O)c3ccco3)sc2c1 | -5.8

The list continues.
SMILES | Mtb betalactam
Cn1c(=O)c2sccc2n(CC(=O)NCCC2=CCCCC2)c1=O | 0.7
Cc1ccc(/C=N/NC(=O)c2ccc(-n3cnnn3)cc2)cc1 | -5.3
CCC[C@@H](CN1CCC[C@H]1CN1C(N)=NC[C@@H]1Cc1ccccc1)N1C[C@@H]([C@H](C)CC)N(CCCC2CCCC2)C1=N | 100.1
Cc1ccc(Sc2ccc(S(=O)(=O)Nc3ccc(CC(=O)O)cc3)cc2)cc1C | -7.9
C[C@H](CO)N1C[C@H](C)[C@@H](CN(C)Cc2ccc(C(=O)O)cc2)Oc2c(NS(=O)(=O)c3ccccc3)cccc2C1=O | -5.4
Nc1scc2c(C(=O)O)nn(-c3ccccc3)c(=O)c12 | -10.4
Cn1cncc1C#Cc1c(-c2ccsc2)sc2ccccc12 | 98.9
Cc1onc(-c2ccccc2)c1C(=O)NCCSCc1ccco1 | -1.5

As a working copy, part of the list above.
SMILES | Mtb betalactam
Cc1ccc(Sc2ccc(S(=O)(=O)Nc3ccc(CC(=O)O)cc3)cc2)cc1C | -7.9
C[C@H](CO)N1C[C@H](C)[C@@H](CN(C)Cc2ccc(C(=O)O)cc2)Oc2c(NS(=O)(=O)c3ccccc3)cccc2C1=O | -5.4
Nc1scc2c(C(=O)O)nn(-c3ccccc3)c(=O)c12 | -10.4
Cn1cncc1C#Cc1c(-c2ccsc2)sc2ccccc12 | 98.9
Cc1onc(-c2ccccc2)c1C(=O)NCCSCc1ccco1 | -1.5

Remaining list, next part:
SMILES | Mtb betalactam
COCC(C)n1c(C)cc(C(=O)COC(=O)c2cc(=O)[nH]c3ccccc23)c1C (stereo not drawn) | -7.5
CCn1c(C)nc2cc(C(=O)NNC(=O)c3ccc(C)cc3)ccc21 | 0.0
CCOc1ncccc1C(=O)OCC(=O)N1CCC(C)CC1 | 5.7
CCOC(=O)[C@@H]1[C@H]2COc3cc(OC)ccc3[C@@H]2N2C(=O)N(c3ccccc3)C(=O)[C@]12C | -3.3
COc1ccc(C#Cc2c(-c3ccccc3)n(C)c3ccccc23)cc1 | -4.4
CCOc1ccc(C2=CC(=O)C[C@H](c3ccc(OC)cc3)C2)cc1 | 3.7
CC(=O)c1cc2c(cc1NC(=O)CSc1ccc(S(=O)(=O)N(C)C)cn1)OCO2 | -3.7
COc1ccc(NC(=O)CNc2cc(C)ccc2C)cc1S(=O)(=O)N1CCOCC1 | 2.8
CCCCNc1c(-c2cccc(-c3ccc(OC)cc3)c2)nc2cc(C)ccn12 | 98.0
CC(Oc1ccc(C#N)cc1)C(=O)NC1CCCC1 (stereo not drawn) | 2.0
CCC(CO)Oc1cc(NC(=O)Cc2ccccc2)c2ncn(C(C)C)c2c1 (stereo not drawn) | -1.9
CCN(C(=O)Cn1cnc2c1c(=O)n(C)c(=O)n2C)C1CCCCC1 | 3.4
CS(=O)(=O)c1ccc(Cl)c(NC(=O)COC(=O)C23CC4CC(CC(C4)C2)C3)c1 | -0.3
Cc1cccc(OCC(=O)N(Cc2ccco2)c2c(N)n(Cc3ccccc3)c(=O)[nH]c2=O)c1 | -2.4

Screening data as filed in PubChem BioAssay.

The list is partial (hit frequency here may not be typical).
